# H5N1 antiviral: MDCK cell protection from H5N1 avian flu; inhibition, % at 50 µM; cytopathic effect, luminescence, 72 h; active compounds read high; no value below 0 was filed and about half of the inactive calls have no number; reference of the scale not given here; AID 740; 96,000 tested, 0.07% active; in the data active = inhibition above about 25%
# Starred values were filed as active, the others as inactive; i = inactive.
SMILES,H5N1 antiviral
CCOCCCn1c(=S)[nH]c2cc(C(=O)N3CCC(C(N)=O)CC3)ccc2c1=O,i
O=C1/C(=C/c2ccncc2)SC(=S)N1C1CCS(=O)(=O)C1 (configuration not stated),i
CCCCc1c(O)nc(SCCC(=O)O)[nH]c1=O,i
Cc1cccc(-n2cnc(C(=O)NC3CCCCCC3)c2)n1,i
CCCCN1C(=O)NC(NC(=O)c2ccco2)(C(F)(F)F)C1=O (configuration not stated),0.5
Cc1nn(C)cc1/C=N/NC(=S)Nc1ccccc1,1.5
COCCN(C(=O)Nc1ccc(OC)cc1OC)C1CCN(C(C)=O)CC1,i
COc1cccc(-n2c(SCC(=O)OC(C)C)nnc2-c2cccnc2)c1,2.2
CCN(c1cccc(C(F)(F)F)c1)S(=O)(=O)c1ccc2c(c1)CCN2C(C)=O,i
Cn1c(Cl)nc2c1c(=O)n(Cc1cccc(Br)c1)c(=O)n2C,1.6
CCc1ccc(-c2nc(CN3CCC(C(=O)NCCc4ccc(OC)c(OC)c4)CC3)c(C)o2)cc1,0.1
CCCN1CCC(NC(=O)Nc2ccc(OC)c(OC)c2)CC1,i
COc1ccccc1C1=NN(C(=S)Nc2ccccc2)C(c2ccco2)C1 (configuration not stated),i
COC(=O)c1cc(OC)c(OC)cc1-n1cnc2cc(OC)c(OC)cc2c1=O,i
O=C(O)CCN1C(=O)c2ccccc2C1=O,i
NS(=O)(=O)c1ccc(NC=C2C(=O)OC3(CCCCC3)OC2=O)cc1,i
Clc1ccc(CNC2CCCC2)cc1,1.1
Cc1ccc(C(=O)CC2(O)C(=O)N(C)c3ccccc32)o1 (configuration not stated),i
O=C(C1CCC1)N1CCc2cc(S(=O)(=O)NCC3COc4ccccc4O3)ccc21 (configuration not stated),0.1
O=C(NC(=S)Nc1ccc(Cl)cn1)C(c1ccccc1)c1ccccc1,0.4
CCc1nc2c(sc3nc4c(cc32)COC(C)(C)C4)c(=O)n1Cc1ccccc1,3.9
Fc1ccc(Nc2nc(Oc3ccccc3F)nc(N3CCCC3)n2)cc1,i
CCSc1nn2c(=O)c3ccccc3nc2s1,7.6
O=[N+]([O-])c1ccc(C=Nc2ccc(Cl)cc2Cl)s1,i
COc1ccc(C)cc1-n1c(N)c(C#N)c(C#N)c1-c1ccc(OC)c(OC)c1OC,0.7
O=C(O)C1CC=CCC1C(=O)N1CCN(c2nc(-c3ccccc3)c3ccccc3n2)CC1 (configuration not stated),i
COC(=O)c1ccc(S(=O)(=O)N2C3CCC2CC(NC(=O)C2CC2)C3)cc1 (configuration not stated),i
Cc1cccc(NC(=S)NNC(=O)CC(C)O)c1C (configuration not stated),i
COC(=O)c1scc(C)c1NC(=O)Nc1ccccc1,6.2
Cc1cc(C(=O)CSc2nnc(-c3ccco3)o2)c(C)n1CC1COc2ccccc2O1 (configuration not stated),0.6
CCCC(C(=O)n1nc(C)cc1C)C(NS(=O)(=O)c1ccc(C)cc1)c1ccccc1 (configuration not stated),3.5
O=C(NCc1ccc2c(c1)OCO2)c1ccc2c(c1)OCCO2,i
O=c1cc(CN2CCN(c3cccc(Cl)c3)CC2)c2cc(O)c(-c3ccccc3)cc2o1,i
O=S(=O)(c1ccc2ccccc2c1)N1CCN(S(=O)(=O)N2CCOCC2)CC1,1.6
O=C(Nc1ccccc1OC(F)F)c1ccc(Br)o1,i
Cc1cc(OCC(=O)Nn2cnnc2)ccc1Br,i

# Compounds listed so far containing four or more nitrogen atoms (9):
SMILES,H5N1 antiviral
CCOCCCn1c(=S)[nH]c2cc(C(=O)N3CCC(C(N)=O)CC3)ccc2c1=O,i
Cc1cccc(-n2cnc(C(=O)NC3CCCCCC3)c2)n1,i
Cc1nn(C)cc1/C=N/NC(=S)Nc1ccccc1,1.5
COc1cccc(-n2c(SCC(=O)OC(C)C)nnc2-c2cccnc2)c1,2.2
Cn1c(Cl)nc2c1c(=O)n(Cc1cccc(Br)c1)c(=O)n2C,1.6
Fc1ccc(Nc2nc(Oc3ccccc3F)nc(N3CCCC3)n2)cc1,i
COc1ccc(C)cc1-n1c(N)c(C#N)c(C#N)c1-c1ccc(OC)c(OC)c1OC,0.7
O=C(O)C1CC=CCC1C(=O)N1CCN(c2nc(-c3ccccc3)c3ccccc3n2)CC1 (configuration not stated),i
Cc1cc(OCC(=O)Nn2cnnc2)ccc1Br,i

# Following part:
SMILES,H5N1 antiviral
N#CC1=C(N)SC(N)=C(C#N)C1c1ccnc2ccccc12,0.2
COC(=O)c1cc2n(n1)CCN(Cc1ccccc1F)C2=O,0.2
COc1cccc(NC(=O)CCN2CCN(C)CC2)c1,i
COc1cccc(C(=O)N2CCN(C3CCN(Cc4ccccc4)CC3)CC2)c1,i
CCNc1sc(C(=O)c2cccs2)c(N)c1-c1nc2ccccc2s1,1.0
O=C(NC(O)C(=O)c1ccccc1)c1cccs1 (configuration not stated),i
Cc1ccc(Sc2c(C)[nH]n(C(C)(C)C)c2=O)cc1,0.2
O=C(NCc1ccc(F)cc1)c1cc2ccccn2n1,0.9
CC1=C(c2ccccc2)[N+](=O)C2(CCCC2)N1[O-],i
CN(Cc1nc(-c2cccnc2)no1)S(=O)(=O)c1ccc2ccccc2c1,1.6
O=C(Nc1nc(-c2cccs2)cs1)c1ccc(Cl)s1,i
CC(C)Cn1c(N)c(C(=O)COC(=O)C2CCCCC2)c(=O)n(C)c1=O,1.5

# A second format for part of the listing above.
Cc1ccc(Sc2c(C)[nH]n(C(C)(C)C)c2=O)cc1
  H5N1 antiviral: 0.2

O=C(NCc1ccc(F)cc1)c1cc2ccccn2n1
  H5N1 antiviral: 0.9

CC1=C(c2ccccc2)[N+](=O)C2(CCCC2)N1[O-]
  H5N1 antiviral: i

CN(Cc1nc(-c2cccnc2)no1)S(=O)(=O)c1ccc2ccccc2c1
  H5N1 antiviral: 1.6

# (continued)
SMILES,H5N1 antiviral
O=C1/C(=C/c2ccc(N3CCOCC3)o2)SC(=Nc2ccccc2)N1CCc1c[nH]c2ccccc12,i
CC(C)OC(=O)c1cc(C(=O)c2cc(F)ccc2O)coc1=N,0.8
Cc1nn(C(C)(C)C)c(OC(=O)C2CCCC2)c1S(=O)(=O)c1ccccc1,1.1
CCOc1ccc(C(=O)N(Cc2ccc(N(C)C)cc2)C2CCS(=O)(=O)C2)cc1 (configuration not stated),i
O=S(=O)(c1ccccc1)c1cnc(-c2cccnc2)nc1-c1ccccc1,1.6
Cc1snc(S(=O)(=O)/C(C#N)=N/Nc2ccc(C(F)(F)F)cc2)c1C#N,i
Cc1cc(C)c(S(N)(=O)=O)c(C)c1-n1cnnn1,i
COc1ccc(-c2nnc3n2N=C(c2cccc(Br)c2)CS3)cc1OC,1.1
O=C1CC(SC(=Nc2ccccc2)Nc2ccccc2)C(=O)N1c1cccc(Cl)c1 (configuration not stated),16
COc1ccc(C2C(C(=O)O)CC(=O)N2C2CCCCC2)cc1 (configuration not stated),0.2
NC(=O)C1(NC(=O)[C@@H]2CC3(CC(c4cccc(NC(=O)[C@@H]5CCC(=O)N5)c4)=NO3)CN2C(=O)c2ccccc2)CC1 (some centres not stated),i
CCOC(=O)N1CCN(S(=O)(=O)c2ccc(C)c(C)c2)CC1,1.0

# Single entries from the list:
# Result for CCOC(=O)N1CCN(S(=O)(=O)c2ccc(C)c(C)c2)CC1 under H5N1 antiviral: 1.0
# Result for Cc1nn(C(C)(C)C)c(OC(=O)C2CCCC2)c1S(=O)(=O)c1ccccc1 under H5N1 antiviral: 1.1

# (listing goes on)
SMILES,H5N1 antiviral
O=C(c1cc2ccccc2oc1=O)N1CCN(c2ncccn2)CC1,0.5
COCCCn1c(-c2ccco2)nc2ccccc2c1=O,0.8
O=c1c2ccccc2nc(N/N=C/c2c(O)ccc3ccccc23)n1O,i
NNC(=O)CNC(=O)c1cccc(Br)c1,0.1
CCC(CC)c1nnc(NC(=O)CN2C(=O)C3C4C=CC(C4)C3C2=O)s1 (configuration not stated),i
CCOC(=O)c1c(-c2ccc(OC)cc2)csc1NC(=O)CCN1C(=O)c2ccccc2C1=O,i
O=C(COc1ccc([N+](=O)[O-])cc1)N/N=C/c1ccccn1,0.9
COC(=O)c1ccc(CSc2nnc3c(Cl)cc(Cl)cn23)o1,11
[O-][n+]1onc2c3ccnnc3ccc21,i
O=P(O)(O)CP(=O)(O)O,0.2
CO/N=C\CC(=O)Nc1ccc(F)cc1,i
O=C(CN1CCOCC1)Nc1ccc(OCc2ccccc2)cc1,0.5
Nc1c(C(=O)Nc2ccc(Cl)cc2)oc2ccccc12,i
c1csc(-c2ncc3ccccn23)c1,2.1
CC1CCCN(C2=NC(=O)/C(=C/c3cn(-c4ccccc4)nc3-c3cccc(S(=O)(=O)N(C)C)c3)S2)C1 (configuration not stated),i
CN(C)S(=O)(=O)c1cccc(C(=O)Nc2ccccc2Cl)c1,i
CCOC(=O)C1C(=O)N(C(=O)c2ccc(OC)cc2)CC1c1ccccc1 (configuration not stated),i
CC(=O)Nc1sc2c(c1C(c1cccs1)N1CCOCC1)CCCC2 (configuration not stated),i
CCOc1cc(N2CCOCC2)c(OCC)cc1NC(=O)COc1ncnc2ccccc12,i
COc1ccc(N2C(N)=NC(N)=NC2(C)C)cc1,1.2
Cc1ccc(CNC(=O)c2ccccc2NS(C)(=O)=O)cc1,i
O=C(CSCc1nc2ccccc2[nH]1)N1CCN(c2ccc(F)cc2)CC1,1.0
c1ccc(CCNc2nnnn2-c2ccccc2)cc1,0.8
Cc1noc(C)c1CSc1nnc2ccccn12,0.2
CN1c2ccccc2-c2nc3ccccc3n2C1c1ccccn1 (configuration not stated),i
Cc1c(Br)cccc1NC(=O)c1sccc1-n1cccc1,2.0
CC(NC(=O)c1cccs1)C(=O)NC1=NCCS1 (configuration not stated),1.3
COCCNC(=O)CN(C(=O)CCC(=O)Nc1nccs1)c1ccccc1OC,i
Cc1ccc(C(=O)OCC(=O)Nc2ccccc2C(F)(F)F)cc1S(=O)(=O)N1CCOCC1,0.4
NC(N)=N/N=C/c1ccccc1,i
CC1(C)CC2CC(C)(CN2C(=O)C23CCC(C)(C(=O)O2)C3(C)C)C1 (configuration not stated),1.9
COc1ccc2c(Cl)c(C(=O)N/N=C/c3ccc4c(c3)OCO4)sc2c1,0.3
CSc1cccc(NC(=O)COc2ccccc2)c1,i
CCc1nc2ccccc2n1CC(=O)N(C(C)CC)C1CCS(=O)(=O)C1 (configuration not stated),0.1
CCCOc1ccc(N2C(=O)CC(N3CCCC(C(=O)N4CCCC4)C3)C2=O)cc1 (configuration not stated),i
COc1ccc(-c2nc3ccccc3c(C(=O)Nc3ccc(S(=O)(=O)Nc4cc(C)on4)cc3)c2C)cc1,1.0
c1ccc2c(NCC3CCCO3)nc(-c3ccncc3)nc2c1 (configuration not stated),0.6
Cc1noc(C)c1CSc1nc2ccccc2nc1NS(=O)(=O)c1ccc(Cl)cc1,2.4
NC(=O)N1CCCC1C(=O)Nc1ccc(Cl)c(Cl)c1 (configuration not stated),i
CCSc1nnc(NC(=O)C(C(F)(F)F)C(F)(F)F)s1,i
CC(=O)OC1N=C(c2ccccc2)c2cc(Br)ccc2NC1=O (configuration not stated),i
COc1ccccc1NC(=O)c1cc(Sc2nncn2C)nc2ccccc12,1.7
O=C(CSc1nnc(-c2ccccc2O)o1)N1CCc2ccccc2C1,1.8
Cc1cc(C(=O)OCC(=O)NCc2ccco2)c(C)n1-c1ccc(F)cc1,i
COc1cc(C2=NOC(C(=O)NC3CCCCC3)C2)cc(OC)c1OC (configuration not stated),i
Cc1cccc(-n2c(C)cc(/C=N/NC(=O)c3ccc(CN4CCOCC4)cc3)c2C)c1,i
CNc1ccccc1-n1ccc(-c2ccccc2)n1,i
c1ccc2c(N3CCCCC3)nc(N3CCCCC3)nc2c1,0.6
Cc1nn(Cc2ccccc2)c(Cl)c1C(=O)OCc1nnc(-c2ccc(Cl)cc2)o1,0.1
O=C(CSc1nc2c(cnn2-c2ccc(F)cc2)c(=O)[nH]1)N1CCCCCC1,2.0
O=C(NCCN1CCOCC1)c1ccc2c(c1)N(Cc1ccc(F)cc1)C(=O)CS2,2.3
Cc1nn(-c2ccccc2)c2c1C1(C(=O)N(C)c3ccccc31)C(C#N)=C(N)O2 (configuration not stated),0.1
OC1(CN2CCOCC2)C2CC3CC(C2)CC1C3 (configuration not stated),i
CN(C)c1nc(OCCNC(=O)COc2ccc(Cl)cc2Cl)nc(N2CCOCC2)n1,0.9
O=C(NCc1ccco1)c1ccc2nc3sc4c(c3c(=O)n2c1)CCCC4,3.2
Cc1ccc(C)c(NC(=O)CSc2nnc(CSc3nc(C)cc(C)n3)n2Cc2ccco2)c1,i
CCOC(=O)c1sc(N)c(C#N)c1CSc1nnc(C2CCCCC2)n1N,i
CCn1c(=O)c(C(=O)NCc2ccc(OC)cc2)c(O)c2ccccc21,i
Cc1cc(NC(=O)c2ccc3c(c2)OCCO3)no1,0.0
Cn1c(=O)[nH]c(=O)c2c1nc(Br)n2CCCO,0.6

# (further entries)
SMILES,H5N1 antiviral
CC1(C)CC(=O)C2=C(C1)N(c1ccc(F)cc1)C(=O)CC2c1cccnc1 (configuration not stated),i
Cc1ccc2nc(NC(=O)CCn3c(=O)sc4ccccc43)sc2c1,4.4
COc1cc2c(cc1OC)C(C)N(C(=O)c1cc3ccccc3o1)CC2 (configuration not stated),i
CN(C)/C=N/c1ncc(C(=O)c2ccccc2)s1,1.5
Cc1sc2nc(CN(C(=O)c3cccs3)C3CCCC3)[nH]c(=O)c2c1C,2.7
CCc1ccc(NCCC(=O)c2ccc(Br)cc2)cc1,i
CCOC(=O)N1CCN(c2c(N3CCC(N4CCCCC4)CC3)c(=O)c2=O)CC1,1.1
O=C(CSc1nnc(CSc2nc3ccccc3s2)o1)NC1CCCCC1,1.1
CCN(CC)CCNC(=O)Cn1cnc2sc(C)c(S(=O)(=O)N3CCOCC3)c2c1=O,0.4
CCOC(=O)N1CCN(C(=O)CSCc2ccccc2C)CC1,i
Cc1ccccc1NC1=C/C(=N\S(=O)(=O)c2cccs2)c2ccccc2C1=O,i
CCN(CC)C(=S)SCC(=O)c1ccccc1,i
CCCC(=O)Nc1c(C(=O)OCC)[nH]c2ccccc12,1.1
O=C(NC1CCN(Cc2ccccc2)CC1)C1CCCN(S(=O)(=O)c2cccc3nonc23)C1 (configuration not stated),i
CCOC(=O)c1cccc(NC(=O)CN(c2ccc(C)cc2)S(=O)(=O)c2c(C)n[nH]c2C)c1,i
CC(=O)N1C(=O)N(C)C2C1N(C)C(=O)N2C(C)=O (configuration not stated),0.7
NC(=O)c1cc(S(=O)(=O)Nc2cccc(F)c2)co1,0.4

# Screens deposited in PubChem by SRMLSC.

# Only part of the results is shown; the hit share may differ from the screen's.
